# CSC inhib – cancer stem cell inhibition. inhibition, % at 7.5 µM. cancer stem cell-like cells viability, luminescence. actives 1.1% (n = 300,000);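 active = mean at 75% or more and at least half the replicates too; tested in HMLE shEcad cells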;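 also: 0% = median of negative and 100% = median of positive control wells; the first replicate is given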
# eIF4H inh – inhibitors of RNA binding by human eIF4H | AID 2012 | actives 0.94% (n = 290,000) | eIF4H fluorescence polarization binding assay | inhibition, % at 35 µM;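 active = 50% or more with normal probe brightness, or confirmed in later tests; about a fifth of its hits are not listed in these tables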;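 also: calls also rest on retests at 20 µM and on dose response follow-up; 0% = protein and probe with vehicle and 100% = probe without protein; strong numbers were not always called active; many hits fall short of the cut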
# Env fusion inh – HIV envelope-mediated fusion inhibition; inhibition, % at 12.3 µM; actives 1.1% (n = 360,000); AID 651610; HeLa-JRFL Env/CEM21 cell fusion, luciferase;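 active = mean replicate inhibition score of at least 50 and every replicate individually at or above 50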;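 also: 0% = plate neutral controls and 100% = maraviroc near 300 nM; one replicate is shown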
# Rce1 inhib – blocks yeast Ras-converting enzyme; Q03530; yeast membranes, quenched prenylated peptide cleavage fluorescence; calls only; actives 0.27% (n = 290,000); AID 2563;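 active = fall in fluorescence gain of 50% or more versus controls, with final raw signal at or below 3038400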;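 also: plate controls were neutral control wells for no effect and wells lacking membranes for full effect; tested at 10 µM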
# PABP polyA inh – blocks human PABP binding to poly(A) RNA; fluorescence polarization; AID 2014; inhibition, % at 35 µM; actives 1% (n = 290,000);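 active = 50% or more with normal probe brightness, or confirmed in later tests; about a fifth of its hits are not listed in these tables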;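 also: calls also rest on retests at 20 µM and on dose response follow-up; controls were probe without protein and protein plus probe with vehicle; some compounds called inactive have numbers as strong as hits; many hits fall short of the cut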
# Target sequence (P11940 whole entry, looked up): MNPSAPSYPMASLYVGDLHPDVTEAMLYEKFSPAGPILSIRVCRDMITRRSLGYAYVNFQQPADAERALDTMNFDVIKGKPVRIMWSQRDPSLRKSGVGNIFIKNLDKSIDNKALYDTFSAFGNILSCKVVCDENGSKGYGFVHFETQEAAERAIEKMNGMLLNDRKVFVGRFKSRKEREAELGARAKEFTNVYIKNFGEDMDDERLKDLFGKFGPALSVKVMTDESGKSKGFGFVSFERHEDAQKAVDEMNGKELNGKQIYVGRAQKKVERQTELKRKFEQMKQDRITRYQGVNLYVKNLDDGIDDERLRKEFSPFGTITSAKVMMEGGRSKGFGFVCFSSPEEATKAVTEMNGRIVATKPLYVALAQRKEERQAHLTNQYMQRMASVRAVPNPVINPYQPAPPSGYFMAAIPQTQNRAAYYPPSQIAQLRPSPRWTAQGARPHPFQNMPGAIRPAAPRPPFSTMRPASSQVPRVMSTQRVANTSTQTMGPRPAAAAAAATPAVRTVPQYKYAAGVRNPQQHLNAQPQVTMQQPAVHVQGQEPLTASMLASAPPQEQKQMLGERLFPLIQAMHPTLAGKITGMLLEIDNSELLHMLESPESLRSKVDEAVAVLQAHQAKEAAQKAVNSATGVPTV
# MT1-MMP act inh – inhibitors of human MT1-MMP activation; P50281; GFP/RFP ratio change, % at 20 µM; HT1080 RFP-PRO-GFP cells, GFP/RFP ratio fluorescence, overnight; percent of plate control window, DMSO zero; actives 0.061% (n = 360,000);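 active = GFP/RFP ratio change of at least 30% with cell ATP level not reduced by more than half and red fluorescence within 50% of control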; also: strong numbers were not always called active
#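 system = RFP-PRO-GFP reporter HT1080 cells | dosing = 20 µM single dose, 1% DMSO | timing = overnight cell settling, then overnight compound exposure, 37 °C, 5% CO2 | read-out basis = GFP/RFP fluorescence ratio | controls = DMSO and RFP-L50D-GFP cell wells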
# Yeast UUG start – alters start codon recognition fidelity in yeast | S. cerevisiae UUG-firefly luciferase reporter, luminescence/redox ratio | activity score, % at 18.7 µM | actives 0.13% (n = 350,000) | AID 602363;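 active = replicate mean at a twofold rise or more, about +100% in these data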;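 also: firefly luciferase made from a UUG start codon reports start codon fidelity; reporter light over untreated wells divided by growth signal over untreated wells; some hits fall short of that in this replicate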
# eIF4H inh retest – second read-out of eIF4H inh, no call of its own (marks repeat the call); inhibition, %; compound at 20 µM; confirmation average;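 mean of two retest wells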
# PABP polyA inh retest – second read-out of PABP polyA inh, no call of its own (marks repeat the call); inhibition, %; compound at 20 µM; confirmation repeats;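 mean of two retest wells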
# MT1-MMP act inh RFP – second read-out of MT1-MMP act inh, no call of its own (marks repeat the call); RFP signal change, %; measured here: RFP expression control read;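 0 = vehicle wells; hits needed this value within 50% of zero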
# The depositor's hits bear a star; i = inactive; . = not tested or not shown; & = joins results of further samples.
# Start of the listing, in advance (3 entries):
SMILES,CSC inhib,eIF4H inh,Env fusion inh,Rce1 inhib,PABP polyA inh,MT1-MMP act inh,MT1-MMP act inh RFP,Yeast UUG start,others
Cc1ccc(-c2noc(CSc3nc(N)cc(N)n3)n2)cc1,-3.7,-9.6,-61.0,i,-4.8,3.5,-13.0,.,
Cc1ccc(C(=O)NCC(=O)N2CCC(Cc3ccccc3)CC2)cc1,4.2,-2.5,.,i,-3.7,0.6,-3.1,-17.4,
CCCn1nnnc1NCc1ccc(SC)cc1,-1.2,2.0,2.7,i,1.2,-0.7,1.2,-2.5,

# All compounds of this part, from the start:
SMILES,CSC inhib,eIF4H inh,Env fusion inh,Rce1 inhib,PABP polyA inh,MT1-MMP act inh,MT1-MMP act inh RFP,Yeast UUG start,others
Cc1ccc(-c2noc(CSc3nc(N)cc(N)n3)n2)cc1,-3.7,-9.6,-61.0,i,-4.8,3.5,-13.0,.,
Cc1ccc(C(=O)NCC(=O)N2CCC(Cc3ccccc3)CC2)cc1,4.2,-2.5,.,i,-3.7,0.6,-3.1,-17.4,
CCCn1nnnc1NCc1ccc(SC)cc1,-1.2,2.0,2.7,i,1.2,-0.7,1.2,-2.5,
CCCS(=O)(=O)N1CCN(Cc2ccco2)CC1,-9.1,2.3,.,i,-3.1,-5.2,-5.5,0.5,
CN(C)S(=O)(=O)c1cccc(NC(=O)c2cc3ccccc3o2)c1,7.5,-1.4,-74.1,i,-2.7,5.8,-6.4,0.0,
O=C(NC1=NCCS1)C12CC3CC(C1)CC(C(=O)NC1=NCCS1)(C3)C2,-5.3,-3.2,.,i,-5.1,-0.3,-1.3,-18.7,
COc1ccc(-c2[nH]ncc2CN2CCC(N3CCSCC3)CC2)cc1F,-1.5,-9.5,17.0,i,-6.7,5.9,4.7,.,
COCCn1c(SCC(=O)N2CCCCC2)nc2c(c1=O)SC(C)C2 (configuration not stated),5.9,-5.7,3.7,i,-2.5,-2.3,-1.4,0.1,
CSC(=S)N/N=C/c1ccccc1,-1.6,8.3,-9.7,i,-8.2,0.1,2.0,-26.9,
CC1(c2ccc(OC(F)F)cc2)NC(=O)N(CC(=O)Nc2cccc(S(N)(=O)=O)c2)C1=O (configuration not stated),-23.3,29.9,-2.0,i,41.8,-1.9,0.6,-1.0,
CCN(CC)S(=O)(=O)c1ccc(NC(=O)CSc2cccc[n+]2[O-])cc1,-13.6,-1.1,.,i,-5.2,6.5,6.6,.,
CCCN(CCC)C(=O)CC(c1ccccc1)c1cc(C)ccc1O (configuration not stated),11.6,12.3,.,i,-0.3,-4.0,-8.8,-4.9,
CCOC(=O)c1ccc2[nH]c(C)c(CCC(C)=O)c(=O)c2c1,-11.3,-10.7,-4.0,i,-3.1,7.3,4.3,-17.4,
O=S(=O)(c1ccc2c(c1)OCCO2)N1CCC(n2nnc3cc(F)ccc32)CC1,2.2,6.8,32.0,i,3.1,-2.1,-6.6,-0.4,
COc1ccccc1NCC(=O)Nc1cc(S(=O)(=O)N2CCOCC2)ccc1N1CCOCC1,-3.8,-3.5,11.5,i,2.4,-1.5,2.2,.,

# Next part, starting with the last two of the part before.
SMILES,CSC inhib,eIF4H inh,Env fusion inh,Rce1 inhib,PABP polyA inh,MT1-MMP act inh,MT1-MMP act inh RFP,Yeast UUG start,others
O=S(=O)(c1ccc2c(c1)OCCO2)N1CCC(n2nnc3cc(F)ccc32)CC1,2.2,6.8,32.0,i,3.1,-2.1,-6.6,-0.4,
COc1ccccc1NCC(=O)Nc1cc(S(=O)(=O)N2CCOCC2)ccc1N1CCOCC1,-3.8,-3.5,11.5,i,2.4,-1.5,2.2,.,
Cc1ccc2c(c1)C=CC(C)(C)S2(=O)=O,-3.2,0.3,-3.6,i,5.5,8.1,7.6,-22.4,
COc1cccc(C2/C(=C(/O)c3ccccc3)C(=O)C(=O)N2Cc2ccco2)c1 (configuration not stated),-2.7,-13.0,9.4,i,1.2,-2.7,1.7,-9.3,
COc1ccc(C2CC(c3ccccc3)=NN2c2ccc(/C=N/NC(=O)c3ccncc3)cc2)cc1 (configuration not stated),5.6,55.2,-22.7,i,33.6,0.8,1.0,-57.0,eIF4H inh retest=-1.9;PABP polyA inh retest=7.7
Cc1cc(NC(=S)NC(=O)c2ccccc2)ccc1-c1cc2ccccc2oc1=O,41.7,-13.4,1.6,i,-1.8,2.8,-8.1,-15.1,
COc1ccc(S(=O)(=O)N(CCc2ccccc2)CC(N)=O)cc1,-11.7,-2.7,2.1,i,2.3,-1.7,0.2,.,
C[C@H](CO)N1C[C@H](C)[C@@H](CN(C)Cc2cccc3c2OCCCO3)OCc2cnnn2CCCC1=O,.,.,19.7,.,.,2.0,-0.6,-19.6&-2.8,
CC(O)(c1ccc(F)c(F)c1)c1nc(-c2cccc(C(=O)O)c2)cs1 (configuration not stated),.,.,-15.2,.,.,0.3,4.2,-14.1,
Cn1c(C(=O)OCC(=O)NCc2ccc(F)cc2)cc2occc21,45.1,.,-32.0,i,.,-1.0,1.7,22.2,
CCOc1ccccc1OCC(=O)NN1Cc2ccccc2C1=N,-3.9,-10.0,.,i,-5.9,-0.2,1.8,4.6,
O=C(O)c1ccc(CN2C(=O)c3ccccc3S2(=O)=O)cc1,6.1,-0.6,.,i,6.0,-1.9,6.7,-15.8,
Cc1cc2ccccc2n1CCNC(=O)C(C)(C)C,3.9,7.9,-29.4,i,4.3,26.3,25.9,5.6,
Cc1nc2ccccc2c2c1CC(C(C)(Cl)Br)O2 (configuration not stated),-10.1,-0.8,73.9*,i,-1.9,0.5,-26.1,.,
COc1ccc(NC(=O)C(CC(=O)O)Cc2ccc(Cl)cc2)cc1 (configuration not stated),-2.0,-0.9,-173.2,i,5.0,-3.0,0.9,-8.3,
COC(=O)c1cnc(Oc2ccc(NC(=O)NC(=O)c3c(F)cccc3Cl)cc2)cc1C(F)(F)F,55.3,-4.5,-61.9,.,6.4,-2.2,-11.9,.,
O=C(CCN1C(=O)c2ccccc2C1=O)Nc1cccc(O)c1,12.9,-2.9,9.4,i,10.1,1.1,6.1,-15.1,

# Taken from the results shown for reference:
SMILES,CSC inhib,eIF4H inh,Env fusion inh,Rce1 inhib,PABP polyA inh,MT1-MMP act inh,MT1-MMP act inh RFP,Yeast UUG start,others
Cc1nc2ccccc2c2c1CC(C(C)(Cl)Br)O2 (configuration not stated),-10.1,-0.8,73.9*,i,-1.9,0.5,-26.1,.,
COc1ccc(NC(=O)C(CC(=O)O)Cc2ccc(Cl)cc2)cc1 (configuration not stated),-2.0,-0.9,-173.2,i,5.0,-3.0,0.9,-8.3,
COC(=O)c1cnc(Oc2ccc(NC(=O)NC(=O)c3c(F)cccc3Cl)cc2)cc1C(F)(F)F,55.3,-4.5,-61.9,.,6.4,-2.2,-11.9,.,

# Next section:
SMILES,CSC inhib,eIF4H inh,Env fusion inh,Rce1 inhib,PABP polyA inh,MT1-MMP act inh,MT1-MMP act inh RFP,Yeast UUG start,others
CCCCNC(=O)CNC(=S)N(Cc1ccccc1)Cc1cccnc1,-15.8,23.5,11.1,i,1.4,-1.1,-5.3,.,
CCOc1ccc(NC(=O)CSc2nc(=O)n(CCCN3CCOCC3)c3c2CCC3)cc1,-18.8,.,7.4,i,.,-3.1,0.5,-0.2,
Cc1cc(-c2csc3ncnc(N4CCN(C)CC4)c23)cc(C)c1C,-3.9,-7.3,-9.9,i,-4.3,-16.4,-9.3,-12.7,
c1ccc(CSc2nccc(-c3ccco3)n2)cc1,15.7,.,26.0,i,.,-4.4,1.1,-7.2,
Cc1csc(NC(=O)CS(=O)(=O)Cc2ccccc2)n1,-2.1,-7.1,-4.9,i,-1.5,-5.5,-0.8,.,
COC(=O)Nc1sc2c(c1C(=O)N1CCOCC1)CCC(C)C2 (configuration not stated),-6.2,-2.3,.,i,1.8,2.0,2.6,7.7,
Nc1nc(SCC(=O)Nc2ccccc2)[nH]c(=O)c1NC(=O)c1cccs1,-1.6,5.5,-17.6,i,5.5,2.6,7.3,-11.2,
Cc1cccc(-n2cnc(C(=O)Nc3cccnc3)c2)n1,41.7,-2.7,.,i,-1.2,-3.4,-6.0,-14.4,
O=C(Nc1ncn[nH]1)c1cc(S(=O)(=O)Nc2cccc(C(F)(F)F)c2)ccc1Cl,.,-7.4,-1.4,i,-5.2,2.1,0.9,.,
C/C(=N/NS(=O)(=O)c1cc(C)ccc1C)c1ccc2c(c1)OCO2,-8.6,4.9,-20.5,i,-5.7,1.4,-0.3,-5.2,
Cn1cc(S(=O)(=O)CC(=O)N2CCc3ccccc32)c2ccccc21,-16.0,-0.5,-51.1,i,6.7,-1.5,0.7,-1.1,
COc1cccc(-n2c(Cc3cc(=O)[nH]c(=O)[nH]3)nnc2SCC(=O)NC2CCCC2)c1,-10.2,4.3,12.1,.,8.5,0.8,5.6,-0.2,
CCOc1ccc(CCNC(=O)Cn2ccc3ccccc3c2=O)cc1OCC,-3.0,-8.3,0.0,i,1.9,2.1,1.3,.,
Nc1nnc(SCC(=O)Nc2cccc(S(=O)(=O)N3CCCCC3)c2)s1,-8.2,.,.,.,.,2.2,-4.1,-21.0,
COc1cc(C2NC(=O)NC(C)=C2C(=O)OC(C)C)ccc1OC(=O)c1ccco1 (configuration not stated),-13.6,-0.1,.,i,1.4,-0.3,6.2,5.4,
CC1(C)CC(=O)N(c2cc(Cl)ccc2Cl)C(=O)C1,-13.4,3.3,-2.7,i,7.3,0.5,-3.0,-3.5,
Cc1cccc(N(O)C(=O)Nc2cccc(Cl)c2)c1,10.1,-0.6,-77.1,i,-1.4,3.1,0.8,-18.1,
O=C(c1nc2ccccc2s1)N1CCSCC1,9.4,-4.9,-102.8,i,1.3,-3.8,-2.0,-10.9,
Cc1ccc(NC(=O)c2cc(S(=O)(=O)N3CCCC3)cn2C)cc1,-9.5,-7.7,-20.1,i,-14.1,1.7,-0.5,-13.4,
O=C(COc1coc(CN2CCN(c3ccccc3)CC2)cc1=O)N1CCc2ccccc21,-6.3,.,-7.7,i,.,5.7,-1.1,-10.9,
COc1nonc1NCn1nc(C)cc1C,-19.0,-7.2,.,i,-10.1,2.3,7.7,-20.8,
COc1ccc(C(C(=O)NC(C)(C)C)N(CCc2ccccc2)C(=O)CCC(=O)Nc2cc(C)on2)cc1 (configuration not stated),.,-0.4,3.6,i,8.1,.,.,-2.8,
OCCC1CN(Cc2ccc(Oc3ncccn3)cc2)CCN1Cc1ccc(F)c(F)c1 (configuration not stated),11.3,-5.0,3.6,i,-1.4,-0.5,2.8,.,
Cc1ccc(C)c(OCCC(=O)OCC(=O)Nc2cccc(S(=O)(=O)N3CCCC3)c2)c1,3.5,.,.,i,.,-0.8,0.5,-13.1,
O=C1COc2ccc(C(=O)COC(=O)Cc3ccsc3)cc2N1,-3.4,1.4,2.7,i,-1.2,-0.1,3.7,.,

# Source: PubChem
